NPR1 antag: Natriuretic polypeptide receptor (hNpr1) antagonism - Primary qHTS; Potency, µM (highest dose often 46.3 µM), inactives show at the highest dose activity change, negative = inhibition, hits mostly inhibitors; HEK293 hNpr1 GloSensor cGMP, ANP-stimulated luminescence; Atrial natriuretic peptide receptor 1 (Homo sapiens), P16066; actives 1.6% (n = 76,000); active = well fitted inhibition curve with a large enough effect; inconclusive = small, poorly fitted or top-dose-only effect; inactive = no such curve, though single readings can be large or run the other way;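 note: nearly all actives have a fitted effect of over 60% in size; nearly all hits also lower the signal before the agonist is added; a reference antagonist and vehicle were the controls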
Target sequence (P16066 whole entry, looked up): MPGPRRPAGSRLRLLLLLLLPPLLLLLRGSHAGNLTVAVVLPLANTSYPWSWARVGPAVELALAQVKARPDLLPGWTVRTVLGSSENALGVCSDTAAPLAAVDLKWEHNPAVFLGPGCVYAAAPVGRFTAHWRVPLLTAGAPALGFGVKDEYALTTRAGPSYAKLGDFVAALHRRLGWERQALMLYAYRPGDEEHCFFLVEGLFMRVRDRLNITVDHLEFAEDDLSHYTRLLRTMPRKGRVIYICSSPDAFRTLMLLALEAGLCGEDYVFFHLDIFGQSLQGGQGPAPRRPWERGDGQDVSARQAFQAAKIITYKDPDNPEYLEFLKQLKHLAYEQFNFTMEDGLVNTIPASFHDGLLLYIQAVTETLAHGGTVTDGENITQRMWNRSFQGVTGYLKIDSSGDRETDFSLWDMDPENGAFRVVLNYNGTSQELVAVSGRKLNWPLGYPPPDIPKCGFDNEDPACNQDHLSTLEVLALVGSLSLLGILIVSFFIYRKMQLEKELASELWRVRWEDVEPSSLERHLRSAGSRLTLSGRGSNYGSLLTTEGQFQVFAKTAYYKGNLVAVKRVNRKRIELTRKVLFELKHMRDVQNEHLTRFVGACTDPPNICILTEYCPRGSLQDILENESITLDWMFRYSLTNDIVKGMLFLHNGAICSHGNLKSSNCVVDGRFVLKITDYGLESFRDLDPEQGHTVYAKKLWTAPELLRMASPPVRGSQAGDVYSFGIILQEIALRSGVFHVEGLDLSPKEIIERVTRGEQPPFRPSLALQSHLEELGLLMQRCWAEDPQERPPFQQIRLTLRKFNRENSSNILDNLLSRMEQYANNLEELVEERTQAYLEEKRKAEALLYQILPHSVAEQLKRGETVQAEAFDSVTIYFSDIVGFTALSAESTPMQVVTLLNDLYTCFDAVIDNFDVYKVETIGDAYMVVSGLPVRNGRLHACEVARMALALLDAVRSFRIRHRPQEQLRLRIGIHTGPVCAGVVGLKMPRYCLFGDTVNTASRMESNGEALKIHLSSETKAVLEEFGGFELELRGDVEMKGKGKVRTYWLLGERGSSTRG
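Compound pre-incubated 30 min at room temperature on GloSensor-loaded HEK293 cells stably carrying hNpr1 and the pGS-40F cGMP biosensor. Stimulation uses hNppA at 0.1 nM final; luminescence is taken at baseline and 20 min post-agonist.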
* marks the source's active call; other numbers are inactive results; ? = inconclusive; & = joins results of further samples; [ ] = another dose, or the depositor's remark. % is set by controls: 0 for no effect and ±100 for the full control effect; potency is the fitted concentration of half-maximal effect. Some of the compounds tested, so the mix of outcomes need not match the whole.

SMILES	NPR1 antag
COc1ccc(C(=O)NC2CCN(c3ccc(C)cc3)C2=O)cc1F (configuration not stated)	-0.3%
O=C1CC(c2noc(COc3ccccc3)n2)CN1C1CCCCC1 (configuration not stated)	-13.9%
COc1ccccc1OCC(=O)c1ccc2c(c1)N(CCCC(=O)NCC1CCCO1)C(=O)CO2 (configuration not stated)	-5.6%
Cc1ccc(-c2cc(C(=O)NCc3c(C)cc(C)[nH]c3=O)c3c(c2)N(C(C)C)CCO3)cc1	-2.0%
COc1cc(NC(=O)N2c3ccccc3CC2c2nc(C3CC3)no2)cc(OC)c1 (configuration not stated)	-2.9%
CN(Cc1ccccc1)c1ncccc1CNC(=O)CN1CCOC1=O	4.1%
O=C1NCCC[C@@H]1NC(=O)[C@@H]1CN(C(=O)c2cccc(F)c2)CCN1C(=O)c1cnccn1	-0.4%
O=C(Cc1cccc(F)c1)NCCC1CCN(C(=O)Nc2ccccc2)CC1	-0.7%
COc1cccc(-c2cc(-c3c(C)noc3C)c3cncn3c2)c1	-15.1%[70.6 µM]
CCn1nccc1C(=O)N1CCCN(C)c2ccccc21	-5.7%
CCNC(=O)[C@@H]1CCCN1[C@@H](C(=O)NC)c1ccc(OC)cc1	0.1%[70.6 µM]
CN1CCC2(C1)CN(CC1CCOCC1)c1ccc(C(=O)Nc3ccn(C)n3)cc12 (configuration not stated)	6.2%[70.6 µM]
CN1CC(=O)N(c2ccccc2F)Cc2c(NCc3cccc(C(F)(F)F)c3)ncnc21	-0.4%
CCOc1cc(C(=O)N2CCC(Cc3nc(-c4ccc(F)cc4)no3)CC2)cc(OCC)c1OCC	?
O=C(c1cccc2[nH]ccc12)N1C[C@@H](CO)[C@H](c2nc(C3CC3)no2)C1	-3.9%
Cc1nc(N2CCCCC2)ncc1C(=O)N1CCC2(CCCNC2=O)C1 (configuration not stated)	-0.7%
O=C(NC1CCCCC1)[C@@H]1C[C@@H](O)CN1C1CCN(C(=O)C2(c3ccccc3)CC2)CC1	4.4%
CCN(CC)Cc1cnc2c(C(=O)NC3(c4ccccc4)CC3)cnn2c1	2.7%
CC(C(=O)N1CCN(c2cc(-c3ccccc3)[nH]n2)CC1)c1ccccc1 (configuration not stated)	-17.9%
CCn1c(CO)nnc1C1CC(NC(=O)c2cnn3cc(C)cnc23)C1 (configuration not stated)	5.1%&-2.7%
COc1ccc(C(=O)N2CCCCCCNC(=O)CC2)c(OC)c1	-15.9%
Cc1nnc2n1CCC(NC(=O)c1cnccn1)CC2 (configuration not stated)	3.0%
CCOc1ccc(NC(=O)C2CN(S(C)(=O)=O)CC23CCCCC3)cc1 (configuration not stated)	-10.9%
CN(CCc1ccccn1)C(=O)C1CCN(C(=O)N2CC3CC(C2)[C@H]2CCCC(=O)N2C3)CC1 (some centres not stated)	4.2%
CCN(C(=O)Cn1ccn2nc3c(c2c1=O)CCCC3)c1ccccc1	-4.2%
O=C(c1cccc(F)c1)N1CC(Oc2cccc(-c3nc(-c4ccccc4)no3)c2)C1	4.5%
O=C(N[C@H]1CCN2C(=O)N(c3ccccc3)C(=O)[C@@H]2C1)c1cccnc1	2.6%[70.6 µM]
C[C@@H](NCc1cccc(Cl)c1)c1onc(-c2ccc(F)cc2)c1C(=O)O	-7.7%[70.6 µM]
CC(C)N1Cc2cc(C(=O)O)sc2C1	2.2%
O=C(Nc1cccc(F)c1)N1CCC(CCNC(=O)C2(c3ccccc3)CC2)CC1	-13.8%

Looked up by compound from above (five):
SMILES	NPR1 antag
CCN(C(=O)Cn1ccn2nc3c(c2c1=O)CCCC3)c1ccccc1	-4.2%
C[C@@H](NCc1cccc(Cl)c1)c1onc(-c2ccc(F)cc2)c1C(=O)O	-7.7%[70.6 µM]
CCOc1ccc(NC(=O)C2CN(S(C)(=O)=O)CC23CCCCC3)cc1 (configuration not stated)	-10.9%
COc1ccc(C(=O)N2CCCCCCNC(=O)CC2)c(OC)c1	-15.9%
CC(C)N1Cc2cc(C(=O)O)sc2C1	2.2%

(list continues)
SMILES	NPR1 antag
O=C([C@@H]1C[C@H](Oc2cccnc2)CN1C(=O)CCc1c[nH]c2ccccc12)N1CCOCC1	2.8%
O=C(CCC1CCN(C(=O)CSc2ncccn2)CC1)NCC1CCCO1 (configuration not stated)	5.1%
O=C1[C@@H]2C[C@@H](O)CN2C2(CN(Cc3ccccc3)C2)C(=O)N1Cc1cccc(Cl)c1	0.7%[70.6 µM]
COc1ccc(C2Cn3nnc(-c4nc(C(C)C)no4)c3CO2)cc1 (configuration not stated)	?
CC(=O)Nc1cccc(-c2ncc3c(n2)OCCN(Cc2ccc(F)cc2F)C3=O)c1	-6.4%[70.6 µM]
Cn1c(CNC(=O)C2Cn3cccc3C(=O)N2Cc2ccccc2)nc2ccccc21 (configuration not stated)	-11.0%
CC1(C)[C@H]2CC[C@@H](CNC(=O)c3cncc(Br)c3)[C@@H]1C2	5.3%
Cc1ccc(-c2ccc3nnc(CNC(=O)Cc4ccccc4Cl)n3n2)cc1	4.5%
CN(C)C(=O)c1ccc(-c2ncc3c(n2)OCCN(Cc2ccc(F)cc2F)C3=O)cc1	-7.7%[70.6 µM]
O=C(CCc1c[nH]c2ccccc12)N1CCC[C@H](n2c(=O)n(CC3CC3)c3cccnc32)C1	-2.7%
COc1ccccc1-n1cc(-c2nc(C3CCOC3)no2)cn1 (configuration not stated)	4.3%
Cn1ccnc1CN1C(=O)CO[C@H]2CN(C3CCCCC3)C[C@H]21	2.1%[70.6 µM]
Cc1ccc(-c2ccc3nnc(CNC(=O)c4cccc5[nH]ccc45)n3n2)cc1	0.4%
CC(c1cccs1)N(C)C(=O)C1CC1 (configuration not stated)	-0.2%[70.6 µM]
CCCn1cnc2c1CN(S(=O)(=O)c1ccccc1)[C@H](C(=O)OC)C2	-1.2%[70.6 µM]
O=C1NC2(CCN(C(=O)c3ccccn3)CC2)Oc2ccccc21	0.0%[70.6 µM]
CCc1ocnc1C(=O)N[C@@H]1CCOC[C@H]1OCC1CCC1	-0.6%
CCc1noc([C@@H]2CC(F)(F)CN2C(=O)c2ccc(C#N)cc2)n1	2.9%
Cc1c(C(=O)N2CCn3nc(CO)cc3C2)cnc2cc(=O)[nH]n12	-1.4%
O=C(CN1CCOCC1)NC1CCc2nnc(C3CC3)n2CC1 (configuration not stated)	-0.2%

Shown in CSV form: entries from further up
smiles,NPR1 antag
CCc1noc([C@@H]2CC(F)(F)CN2C(=O)c2ccc(C#N)cc2)n1,2.9%
CCOc1ccc(NC(=O)C2CN(S(C)(=O)=O)CC23CCCCC3)cc1 (configuration not stated),-10.9%

Next section:
SMILES	NPR1 antag
CC(Cc1cnccn1)NC(=O)CC1c2ccccc2CCc2ccccc21 (configuration not stated)	3.5%
O=C(c1ccc2[nH]ccc2c1)N1CCCC(Cc2noc(-c3ccccn3)n2)C1 (configuration not stated)	15.0%
c1cc(-c2n[nH]c(CC3CCNC3)n2)ccn1 (configuration not stated)	-1.0%
Cc1cccc(C(=O)N2CCC(n3cnnc3-c3ccccc3)CC2)c1	-0.1%
Cc1noc(C)c1CCC(=O)N1Cc2[nH]cnc2CC1C(=O)O (configuration not stated)	1.9%
CC1CCC2(CC1)NC(=O)N(CC(=O)Nc1ccc3c(c1)OCCO3)C2=O (configuration not stated)	3.2%
CCc1nc2c(c(-c3ccc(Cl)cc3)n1)CCN(C(=O)c1ccccc1F)CC2	-0.5%
CN1CCCCCCN(C(=O)c2cccs2)[C@H]2CCC[C@H]2C1=O	0.4%
Cc1ccc(C2NC(=O)N(CC(=O)Nc3cccc(C#N)c3)C3=C2C(=O)OC3)cc1 (configuration not stated)	-14.1%
O=C(c1cccc(=O)[nH]1)N1CCCC(c2n[nH]c(=O)n2-c2ccccc2)C1 (configuration not stated)	-0.2%
Cc1ccc(CNC(=O)N2CCCC(Cc3noc(-c4ccccc4)n3)C2)cc1 (configuration not stated)	4.3%
Cc1nc(NC(=O)C2CC(=O)N(c3n[nH]c4cc(Br)ccc34)C2)sc1C (configuration not stated)	-22.4%
Cc1[nH]cnc1C(=O)N1CCC2(CC1)NC(=O)CC2C(=O)O (configuration not stated)	-16.6%
Cc1noc(C)c1CC(=O)N1C[C@@H](CO)[C@H](c2ccccn2)C1	-1.9%
c1cncc(OCc2nc(C3CCNCC3)no2)c1	1.5%
O=C(Nc1cccc(-c2nnc3n2CCCC3)c1)NC1CCCC1	5.6%
CCO[C@H]1C[C@@H](O)C12CCN(C(=O)c1cc(S(N)(=O)=O)ccc1F)CC2	5.2%
CCc1cnc(C)nc1-c1cc(NCc2ccccn2)nc2[nH]ccc12	0.4%
C=CCN(C)C(=O)[C@@H](C)C1CC[C@@]2(C)Cc3sc(Nc4c(Cl)cccc4Cl)nc3[C@@H](C)[C@@H]2[C@H]1O (some centres not stated)	-20.5%
CN(C)CCCOCC1(C)COc2ccc(C(=O)Nc3cccc(Cl)c3)cc2N1 (configuration not stated)	-6.9%[70.6 µM]
CN1CCCN(C(=O)c2ccccc2F)c2ccccc21	-8.1%
O=C(NCc1ccncc1)C1c2ccccc2C(=O)N(C2CCCC2)C12CCCCC2 (configuration not stated)	-2.8%
COc1ccc(C(=O)NC2CCN(c3cc(-c4ccccc4)[nH]n3)C2)cc1F (configuration not stated)	4.9%
CCCC(=O)Nc1ccc(C2OC(=O)N(Cc3ccc(F)cc3)C2C(=O)NCc2ccccc2)cc1 (configuration not stated)	-3.0%
COC1CCN(S(=O)(=O)N2CCCC(C)(c3ccccc3)C2)CC1 (configuration not stated)	5.7%
COCCNC(=O)[C@@H]1[C@H](c2cc(OC)c(OC)c(OC)c2)c2cc3c(cc2[C@H](O)[C@H]1CO)OCO3	-0.2%
Cc1ccccc1C(=O)N(C)Cc1cccn1C	21.1%[70.6 µM]
O=S(=O)(NC1CCc2nnc(C3CC3)n2CC1)c1cccs1 (configuration not stated)	-2.1%
N#Cc1ccc(S(=O)(=O)N2CCC3(CC2)CC(CC(=O)N2CCOCC2)CCO3)cc1 (configuration not stated)	-12.8%
COCCOCc1nc(C2CCCCN2C(=O)Nc2ccccc2)no1 (configuration not stated)	-2.4%
NC(=O)NCCC(=O)N1CCc2onc(-c3cccc4ccccc34)c2C1	5.3%
COCc1nc(C2CC(N)C2)cc(N2Cc3nc(C)n(C)c(=O)c3C2)n1 (configuration not stated)	-1.3%
Cc1cccnc1C(=O)N1C[C@@H](CO)[C@H](c2nc(C3CC3)no2)C1	-1.5%
CCCCS(=O)(=O)N[C@@H]1CN(Cc2ccncc2)C[C@H]1CN(C)C	-0.7%
COc1cccc(S(=O)(=O)N2CCCC(Cc3noc(-c4cnccn4)n3)C2)c1 (configuration not stated)	-21.4%
Cc1ccc(CCC(=O)N2CC[C@@](O)(C3CCOCC3)[C@H](C)C2)cc1	17.1%
O=C(NCc1ccccc1Cn1cccn1)c1ccc2cccc(F)c2n1	2.3%
CCOc1ccc2c(n1)CCN(C(=O)Cc1ccc(OC)cc1)C2	-2.1%
COc1ccc(CCC(=O)N2CCCCCCN(C)C(=O)[C@@H]3CCC[C@@H]32)cc1	0.2%
Cc1oc(C(O)c2cccc(O)c2)nc1C(=O)Nc1ccc2[nH]c(=O)oc2c1 (configuration not stated)	?
COc1cc(CN2CCC(C)(NC(C)=O)CC2)cc(-c2ccc3[nH]ncc3c2)c1	-26.6%[70.6 µM]
CNC(=O)[C@@H](C1CCCCC1)N1CCC[C@H]1C(=O)N1CCC1	-4.7%[70.6 µM]
Cc1noc(C)c1CCCNC(=O)CCC[C@@H]1[C@H]2CCCN3CCC[C@@H](CN1C)[C@@H]23	-0.1%
COC(=O)c1ccc2nc(CO[C@H]3CN(Cc4ccccc4)C[C@H]3F)[nH]c2c1	-3.5%[70.6 µM]
CCc1nn(-c2ccccc2)c(Oc2cccc(C)c2)c1CCC(=O)N1CCOCC1	-22.3%
COc1cccc(-c2cc(C(=O)N3CCC4(CC3)[C@H](O)C[C@@H]4OC)[nH]n2)c1	0.7%
Cc1cc(C)n(-c2ccc(NC(=O)C3CCN(Cc4nnc(C)o4)CC3)cc2)n1	-5.4%
Cc1cc(N2CCNC(c3ccccc3)C2)n2nc(C)c(C)c2n1 (configuration not stated)	0.9%
COC(=O)[C@H](NC(=O)[C@@H]1C[C@H](NC(=O)Nc2ccc(OC)cc2)CN1C(=O)c1cccn1C)C(C)C	-1.0%
COc1ccccc1OCCNC(=O)C1CCCN(Cc2ccncc2)CCC(=O)NCC1 (configuration not stated)	3.9%

Sorted by molecular weight (ascending): 3 of the compounds above
SMILES	NPR1 antag
CCCCS(=O)(=O)N[C@@H]1CN(Cc2ccncc2)C[C@H]1CN(C)C	-0.7%
COc1cc(CN2CCC(C)(NC(C)=O)CC2)cc(-c2ccc3[nH]ncc3c2)c1	-26.6%[70.6 µM]
COCCNC(=O)[C@@H]1[C@H](c2cc(OC)c(OC)c(OC)c2)c2cc3c(cc2[C@H](O)[C@H]1CO)OCO3	-0.2%

(continued)
SMILES	NPR1 antag
Cc1nc2c(c(-c3ccc(O)cc3)n1)CN(C(=O)c1ccc(Cl)nc1)CCC2	-17.1%
COC(=O)c1cn([C@H]2CO[C@H]3[C@@H]2OC[C@@H]3NCc2ccccc2)nn1	-0.8%[70.6 µM]
CCN(Cc1ccccc1)C(=O)CCC[C@@H]1[C@H]2CCCN3CCC[C@@H](CN1C(=O)c1ccccc1)[C@@H]23	-4.7%
O=C(NCc1cccc(F)c1)c1cnc2n1CCN(CCc1ccccc1)CC2	-2.1%[70.6 µM]
Cc1cc(C(=O)N2Cc3nnc(C)n3C(C)C2)c(-c2ccccc2)o1 (configuration not stated)	1.4%
COc1ccc(Cl)cc1C(=O)N[C@@H]1CN(c2ncccn2)C[C@H]1CN(C)C	7.0%
